SARS PLpro yeast: inhibitors of SARS-CoV papain-like protease in yeast. S. cerevisiae expressing SARS-CoV PLpro, growth rescue; control for the full effect not named in the record. Potency, µM (titrated, usually from 32.9 µM), for inactives: top-dose activity, positive = growth rescue. hit rate 0.19% among 330,000; further: 0% is about no effect; nearly all actives have a fitted effect of over 55% in size; growth read by luminescence after 48 h
Cruzain noTriton: blocks cruzain activity in detergent-free assay. Potency, µM, for inactives: max response, negative = inhibition, actives largely listed as inhibitors. hit rate 2.3% among 200,000. purified cruzain, Z-FR-AMC fluorescence, no detergent. P25779. AID 1476; active means well fitted curve in the direction sought with a large enough effect; inconclusive means small, poorly fitted or top-dose-only effect, or another doubt; inactive means no such curve, though single readings can be large; an effect the other way counts as inactive or inconclusive;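 further: plate controls were enzyme without inhibitor for no effect and buffer without enzyme for full effect; nearly all actives have a fitted effect of over 40% in size; top concentration of the series not given in the record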
Target sequence (P25779 123-467 limits assumed): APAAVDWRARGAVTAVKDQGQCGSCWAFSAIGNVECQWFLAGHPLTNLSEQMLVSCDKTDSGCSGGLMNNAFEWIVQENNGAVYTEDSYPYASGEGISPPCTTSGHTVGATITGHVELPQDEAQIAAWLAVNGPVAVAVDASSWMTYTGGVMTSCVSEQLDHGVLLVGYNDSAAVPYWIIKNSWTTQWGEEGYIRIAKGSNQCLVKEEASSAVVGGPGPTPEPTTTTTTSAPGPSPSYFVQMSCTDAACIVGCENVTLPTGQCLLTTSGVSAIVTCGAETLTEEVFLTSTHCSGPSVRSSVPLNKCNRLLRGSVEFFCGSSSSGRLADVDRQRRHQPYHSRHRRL
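Purified cruzain at 1.5 nM, pre-incubated 15 min with compound at room temperature in 100 mM sodium acetate pH 5.5, 5 mM DTT, 0.00005% Triton X-100. Reaction started with 2 uM Z-FR-AMC; AMC fluorescence increase over 60 s gives rate.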
NS1 function inh: inhibitors of influenza NS1 protein function. S. cerevisiae slowed by influenza A NS1, growth recovery by OD600. hit rate 0.4% among 270,000. Potency, µM (doses to about 46.1 µM), for inactives: top-dose activity, positive = more growth; further: actives are rising curves; nearly all actives have a fitted effect of over 50% in size
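OD600 was taken as the measure of yeast growth restored by compound in an NS1-expressing S. cerevisiae strain. Cells had been washed out of glucose medium and diluted 1:100 into galactose -URA medium, pH 6.0.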
Marburg entry inh: blocks Marburg virus binding to or entry into cells | Marburg virus pseudotyped entry inhibition, cell reporter; control for the full effect not named in the record; about a third of the inactives were read at about 46 µM | Potency, µM (series often up to 37.8 µM), for inactives: at the highest dose activity change, negative = inhibition, hits mostly inhibitors | hit rate 1.8% among 300,000 | AID 540276; active = well fitted inhibition curve with a large enough effect; inconclusive = small, poorly fitted or top-dose-only effect, or effect the other way; inactive = flat fitted curve, though single readings scatter; tested in HEK293 cells; about a fifth of its hits are not listed in these tables; further: on the % scale 0 is the no-effect control and ±100 the full control effect; luciferase read-out
RE007 growth inh: less growth of the S. pombe RE007 Vpr strain; S. pombe RE007 Vpr strain, BacTiter-Glo ATP luminescence, 24 h; control for the full effect not named in the record; Potency, µM (series often up to 92.2 µM), for the others: at the top dose activity change, negative = less growth; hit rate 0.21% among 360,000; active = well fitted falling curve with a large enough effect; inconclusive = small, poorly fitted or top-dose-only effect; inactive = no such curve, though single readings can be large or run the other way;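 further: on the % scale 0 is the no-effect control and ±100 the full control effect; nearly all actives have a fitted effect of over 50% in size; the assay follows cell death caused by Vpr and the record does not say whether a fall means rescue or toxicity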
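Fission yeast RE007 carrying one integrated HIV-1 vpr copy, seeded at OD 0.01 in PMG+AL medium with 23 nL pinned compound. Grown 24 h at 30 degrees; viability read by BacTiter-Glo luminescence after 5 min.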
Lassa entry inh: blocks Lassa virus binding to or entry into cells. Potency, µM (series often up to 37.9 µM), inactives show top-dose activity change, negative = inhibition, hits mostly inhibitors. hit rate 1.2% among 300,000. Lassa virus pseudotype entry inhibition, cell reporter; control for the full effect not named in the record; active means well fitted inhibition curve with a large enough effect; inconclusive means small, poorly fitted or top-dose-only effect, or effect the other way; inactive means flat fitted curve, though single readings scatter; tested in HEK293 cells; further: on the % scale 0 is the no-effect control and ±100 the full control effect; nearly all actives have a fitted effect of over 50% in size; luciferase read-out
Cruzain Triton: blocks cruzain activity in presence of Triton detergent; hit rate 0.43% among 200,000; purified cruzain, Z-FR-AMC fluorescence, 0.01% Triton; Potency, µM, without a hit: max response, negative = inhibition, most hits filed as inhibitors; active means well fitted curve in the direction sought with a large enough effect; inconclusive means small, poorly fitted or top-dose-only effect, or another doubt; inactive means no such curve, though single readings can be large; an effect the other way counts as inactive or inconclusive;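 further: plate controls were neutral wells for no effect and buffer without enzyme for full effect; nearly all actives have a fitted effect of over 40% in size; top concentration of the series not given in the record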
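Enzyme 1.5 nM, Z-FR-AMC 2 uM, NaOAc 100 mM pH 5.5, DTT 5 mM, Triton X-100 0.01%; 15 min RT compound preincubation; kinetic ex360/em450, 60 s delta.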
StopGo reporter: FMDV 2A StopGo reporter, luciferase signal | human cells with a luciferase reporter of 2A StopGo recoding; control for the full effect not named in the record | Potency, µM (top dose mostly 57.9 µM), for inactives: at the highest dose signal change, negative = less light | hit rate 1.2% among 410,000 | AID 1159524; active = well fitted falling curve with a large enough effect; inconclusive = small, poorly fitted or top-dose-only effect; inactive = no such curve, though single readings can be large or run the other way; tested in HEK293T cells; further: on the % scale 0 is the no-effect control and ±100 the full control effect; nearly all actives have a fitted effect of over 45% in size; luciferase light after 4 h
Numbers without * were called inactive; ? = inconclusive; / = not tested or not shown; & = joins results of further samples; [ ] = dose if it differs, or a comment. Unless noted, the call rests on the fitted dose curve; in most records, active means well fitted rising curve with a large enough effect; inconclusive means small, poorly fitted or top-dose-only effect; inactive means no such curve, though single readings can be large or run the other way. Potency means the concentration at half of the fitted maximal effect.

no.	compound	SARS PLpro yeast	Cruzain noTriton	NS1 function inh	Marburg entry inh	RE007 growth inh	Lassa entry inh	Cruzain Triton	StopGo reporter
1	COc1ccc(N2C(=O)c3ccc(C(=O)Nc4ccccc4O)cc3C2=O)cc1	-1%	/	11%	/	0%	/	/	-8%
2	O=C(CSc1nccn1Cc1ccc(F)cc1)Nc1ccc2c(c1)OCO2	/	1%	/	/	/	18%[46.1 µM]	-4.1%	14%
3	O=C(N1CCOCC1)C(F)(F)C(F)(F)C(F)(F)C(F)(F)C(=O)N1CCOCC1	5%	-5%	8%	?	22%	-10%	-4.2%	5%
4	CCCCn1c(N)c(N(CC(C)C)C(=O)CCNC(=O)c2ccc([N+](=O)[O-])cc2)c(=O)[nH]c1=O	4%	/	/	-2%	1%	1%	/	-18%
5	COC(=O)N(C)CCCC1(C)C(=O)N(C)c2ccc(O)cc21 (stereo not given)	-7%	5%	5%	10%	-5%	7%	8.0%	-27%
6	CCN(Cc1ccncc1)Cc1cn(C)nc1-c1ccc(Oc2ccccc2)cc1	-2%	/	-5%	/	1%	/	/	-21%
7	CC(=O)N1CCc2cc(S(=O)(=O)NCCC(=O)Nc3cc(C)cc(C)c3)ccc21	2%	-2%	-7%	?	12%	6%	1.9%	13%
8	CC(=O)Nc1ccccc1C(=O)C(=O)Nc1cccc(C(=O)NCc2ccccc2)c1	-19%	0%	-4%	39%	-5%	-18%	-1.6%	3%
9	Cc1cc(S(=O)(=O)N2CCCOC2CNC(=O)C(=O)NCCCN2CCOCC2)ccc1F (stereo not given)	-1%	/	5%	?	20%	18%	/	-8%
10	O=S(=O)(c1cccc2cnccc12)N1CCNCC1	/	-3%	/	/	-2%[18.4 µM]	/	1.8%	-11%&-8%
11	CCCCn1c(Nc2ccc(OC)cc2)nc2ccccc21	-2%	/	-9%	/	-17%	/	/	-7%
12	O=C(/C=C/c1ccccc1)NNC(=O)c1ccco1	1%	/	0%	?	8%	/	/	51%[activator]
13	Cc1cccc(OCC2CCCN(Cc3nc(C4CC4)no3)C2)c1 (stereo not given)	2%	/	-4%	/	-9%	/	/	-2%
14	CCC(C(=O)NCc1ccco1)N(C(=O)CNS(=O)(=O)c1ccc(C)cc1)c1ccccc1OC (stereo not given)	1%	3%	1%	?	7%	-27%	1.9%	0%
15	Cc1ccccc1OCC(O)Cn1nnc2ccccc21 (stereo not given)	11%	-9%	-15%	?	20%	?	-3.9%	60%[activator]
16	COc1cc2c(cc1OC)CN(CC(=O)NC(=O)NCc1ccccc1)CC2	5%	/	3%	2%[46.1 µM]	-16%	-18%[46.1 µM]	/	-12%
17	CCOC(=O)c1c(NC(=O)CN2C(=O)NC3(CCCCC3C)C2=O)sc(C)c1C (stereo not given)	4%	-16%	-52%	?	0%	?	-8.4%	-4%
18	Cn1c(=O)c2c(-c3ccc(C(C)(C)C)cc3)n(CC3CCCO3)cc2n(C)c1=O (stereo not given)	-11%	?	8%	22%	19%	-13%	-1.6%	4%
19	O=C(NCc1ccccc1Cl)C1(S(=O)(=O)c2ccc(Cl)cc2)CC1	-1%	/	-14%	-25%[46.1 µM]	-9%	10%[46.1 µM]	/	20%
20	O=C(O)c1ccccc1S(=O)(=O)NCC(O)COC1CCCCC1 (stereo not given)	6%	-3%	-2%	-7%	6%	30%	5.2%	-4%
21	COc1cccc(C2=CC(c3cccc(OC)c3OC)n3nnnc3N2)c1 (stereo not given)	-8%	-8%	-33%	?	-5%	?	-1.6%	-12%
22	CCCCCSc1nncc(=O)[nH]1	-3%	15%	-9%	19%	18%	-2%	2.1%	15%
23	CCCOc1ccc(C(=O)NCCc2ccccc2)cc1	-1%	/	-4%	?	2%	2.5µM*	/	?
24	O=C(NNC(=S)Nc1ccccc1)Nc1ccccc1	-2%	/	2%	23%[46.1 µM]	14%	?	/	78%[activator]
25	O=C(CN(C(=O)CCC(=O)Nc1ccccn1)C1CCCC1)NCc1ccc(F)cc1	-1%	/	-5%	-29%[46.1 µM]	-5%	-13%	/	-4%
26	CCc1c(C)c(C#N)c2nc3ccccc3n2c1N(C)C	1%	2%	-24%	-7%	-2%	1%	3.1%	?
27	CCc1ccccc1NC(=O)C1CCN(S(=O)(=O)c2cn(C)cn2)CC1	/	-4%	/	/	/	-3%[46.1 µM]	1.2%	-13%
28	Cc1ccc(Cl)cc1N1CCN(C(=O)c2cn(C)c3ccc(S(=O)(=O)N(C)C4CCCCC4)cc3c2=O)CC1	/	4%	/	?	/	6%[46.1 µM]	4.7%	15%
29	CCOC(=O)C1(Cc2ccccc2C(F)(F)F)CCN(CC2CC2)CC1	0%	/	0%	?	-2%	-29%[46.1 µM]	/	-19%
30	CCCCC(=O)OCc1cc(=O)n2nc(C3CC3)sc2n1	/	-13%	/	/	/	27%[46.1 µM]	-0.7%	47%

Quoted at random: two entries already listed
no.	compound	SARS PLpro yeast	Cruzain noTriton	NS1 function inh	Marburg entry inh	RE007 growth inh	Lassa entry inh	Cruzain Triton	StopGo reporter
28	Cc1ccc(Cl)cc1N1CCN(C(=O)c2cn(C)c3ccc(S(=O)(=O)N(C)C4CCCCC4)cc3c2=O)CC1	/	4%	/	?	/	6%[46.1 µM]	4.7%	15%
10	O=S(=O)(c1cccc2cnccc12)N1CCNCC1	/	-3%	/	/	-2%[18.4 µM]	/	1.8%	-11%&-8%

Further results.
no.	compound	SARS PLpro yeast	Cruzain noTriton	NS1 function inh	Marburg entry inh	RE007 growth inh	Lassa entry inh	Cruzain Triton	StopGo reporter
31	CC12COC3(C(=O)Nc4cccnc4)CC1CCC32C (stereo not given)	1%	-6%	-7%	1%	-5%	0%	1.0%	-17%
32	Cc1c(NC(N)=O)c(=O)n(-c2ccccc2)n1C	0%	/	3%	-1%[46.1 µM]	15%	9%[46.1 µM]	/	-4%
33	CC(C)C(=O)N(Cc1cc2ccccc2[nH]c1=O)C(C)C	-5%	-3%	-5%	4%	-6%	1%	1.2%	-22%
34	CC(C)(CNC(=O)c1cccs1)CNC(=O)c1cccs1	9%	4%	-5%	2%	15%	4%	1.5%	-21%
35	O=C(O)C1CCN(S(=O)(=O)c2ccc(N3CCOCC3)c([N+](=O)[O-])c2)CC1	5%	/	2%	9%	14%	1%[46.1 µM]	/	-8%
36	Cn1c(=O)c2c(nc(SCCN3CCOCC3)n2Cc2ccccc2)n(C)c1=O	21%	-13%	?	1.1µM*	-5%	-11%	-3.6%	-23%
37	Cc1ccc2cccc(OCc3ccc(Br)cc3)c2n1	-4%	/	-10%	-50%[46.1 µM]	-22%	18%[46.1 µM]	/	-6%
38	O=C1COc2ccc(OCc3ccc(F)cc3)cc21	-19%	-17%	-59%	?	13%	-13%[14.3 µM]	2.6%	21%
39	CCC1=Nc2cc(C(=O)NC(C)c3ccccc3)ccc2Sc2ccc(Cl)cc21 (stereo not given)	/	-14%	/	?	/	-6%[46.1 µM]	-2.4%	-21%
40	CC1CN(Cc2ccccc2)C(C)CC1O (stereo not given)	0%	/	4%	?	9%	11%[46.1 µM]	/	?
41	CSc1ccc(CCNC(=O)CCc2nnc3ccc(N4CCC5(CC4)OCCO5)nn23)cc1	-7%	/	?	?	-6%	-26%[46.1 µM]	/	-5%
42	O=C(COc1cccc2ccccc12)NCc1cccnc1	-4%	/	-2%	3%[46.1 µM]	-2%	-19%	/	36%[activator]
43	Cc1noc2ncnc(Oc3ccc(C(C)(C)C)cc3)c12	0%	/	-5%	/	19%	/	/	-8%
44	O=C(COc1ccc(-n2cnnn2)cc1)Nc1ccc(F)cc1	10%	/	/	13%	4%	5%	/	-18%
45	COc1ccccc1N/C(N)=N/c1nc(C)cc(C)n1	0%	/	3%	/	-4%	/	/	?
46	CN1CCSc2ccc(C(=O)NCc3cccc(Br)c3)cc21	-21%	/	-15%	/	15%	/	/	25%
47	O=C(COc1cccc2cccnc12)N/N=C1\SCC(=O)N1Cc1ccco1	?	-5%	0%	16%	-4%	2%	-2.9%	?
48	CCCCNS(=O)(=O)c1ccc2nc(SCC(=O)Nc3ccccc3Cl)[nH]c2c1	-8%	9%	-8%	?	-6%	?	-12%	3%
49	COCCC(=O)NNS(=O)(=O)c1ccc(Cl)cc1	9%	3%	7%	7%	3%	8%	2.4%	-2%
50	Cc1c(C(=O)N(C)Cc2ccccc2)sc2nc(-c3ccc(F)cc3)cn12	/	5%	/	/	/	?	-8.7%	2%
51	Cc1cc(C)c(S(=O)(=O)NC2CC3CCC2C3)c(C)c1 (stereo not given)	-14%	/	-131%	/	3%	/	/	70%[activator]

Among those listed so far, 8 have fluorine.
no.	compound	SARS PLpro yeast	Cruzain noTriton	NS1 function inh	Marburg entry inh	RE007 growth inh	Lassa entry inh	Cruzain Triton	StopGo reporter
2	O=C(CSc1nccn1Cc1ccc(F)cc1)Nc1ccc2c(c1)OCO2	/	1%	/	/	/	18%[46.1 µM]	-4.1%	14%
3	O=C(N1CCOCC1)C(F)(F)C(F)(F)C(F)(F)C(F)(F)C(=O)N1CCOCC1	5%	-5%	8%	?	22%	-10%	-4.2%	5%
9	Cc1cc(S(=O)(=O)N2CCCOC2CNC(=O)C(=O)NCCCN2CCOCC2)ccc1F (stereo not given)	-1%	/	5%	?	20%	18%	/	-8%
25	O=C(CN(C(=O)CCC(=O)Nc1ccccn1)C1CCCC1)NCc1ccc(F)cc1	-1%	/	-5%	-29%[46.1 µM]	-5%	-13%	/	-4%
29	CCOC(=O)C1(Cc2ccccc2C(F)(F)F)CCN(CC2CC2)CC1	0%	/	0%	?	-2%	-29%[46.1 µM]	/	-19%
38	O=C1COc2ccc(OCc3ccc(F)cc3)cc21	-19%	-17%	-59%	?	13%	-13%[14.3 µM]	2.6%	21%
44	O=C(COc1ccc(-n2cnnn2)cc1)Nc1ccc(F)cc1	10%	/	/	13%	4%	5%	/	-18%
50	Cc1c(C(=O)N(C)Cc2ccccc2)sc2nc(-c3ccc(F)cc3)cn12	/	5%	/	/	/	?	-8.7%	2%

Screens deposited in PubChem by National Center for Advancing Translational Sciences (NCATS).
